Bioassay records from PubChem BioAssay.
NPYLR7 ag = mosquito NPYLR7 agonism. AID 1259423. activation, % at 10 µM. HEK293T NPYLR7/Galpha15, GCaMP6s calcium fluorescence. hit rate 0.15% among 270,000; in the data active = activation above about 40%;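 note: 0% = vehicle and 100% = reference agonist at the receptor; some compounds past the cut are filed as inactive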
NPYLR7 ag max-min = further read-out of NPYLR7 ag, marked with its call; activation, %; measured here: Max-Min RFU normalised activation; some inactives read as strong as hits;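 span of the calcium signal over five minutes; 0% = vehicle and 100% = native peptide agonist; compound fluorescence can raise it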
Starred values were filed as active, the others as inactive; & = joins results of further samples. A portion of the library, so the mix of outcomes need not match the whole.

SMILES | NPYLR7 ag | NPYLR7 ag max-min
COc1cccc(CSc2nnc(C(C)NC(=O)c3ccc(Cl)c([N+](=O)[O-])c3)n2-c2cc(Cl)ccc2Cl)c1 (stereo not drawn) | -2 | 12
CCCNC(=O)c1ccccc1-c1cccc(C(C)=O)c1 | 4 | 4
CN1CCN(C(=O)C23CCC(C)(C(=O)C2)C3(C)C)CC1 (stereo not drawn) | -2 | 81
CNS(=O)(=O)c1ccc(C2NCCc3[nH]cnc32)cc1 (stereo not drawn) | 17 | 15
CCC(C(=O)N1CCN(c2nc(-c3cccc(C(F)(F)F)c3)nc(C)c2Cc2ccccc2)CC1)c1ccccc1 (stereo not drawn) | -9 | 1
Cc1ccccc1-c1cnc(NC(=O)Cn2cnnn2)s1 | 3 | 2
CC(NC(=O)C1CCN(S(=O)(=O)c2ccccc2)CC1)c1ccc2c(c1)OCCO2 (stereo not drawn) | 4 | 3
COC(=O)CCC(=O)NCC1Cc2cc(C(=O)OC)ccc2O1 (stereo not drawn) | 25 | 20
O=C(CN(CC1CCCCC1)C1CC1)NC1CCN(C2CC2)CC1 | 2 | 0
O=C1c2ccccc2-c2onc3c(N4CCOCC4)cc(N4CCOCC4)c1c23 | -6 | -15
COC(=O)c1ccc(Oc2coc3c4c(ccc3c2=O)OCN(C2CC2)C4)cc1 | 5 | 4
Cc1nonc1CN(C)C(=O)C(C)N(c1ccccc1)S(C)(=O)=O (stereo not drawn) | 2&7 | 0&3
COc1cc(/C=C(/C#N)c2ccccn2)cc(Cl)c1OC(F)F | 12 | 8
CC(=O)Nc1ccc(N2C(=O)C(C)Oc3cc(Cl)ccc32)cc1 (stereo not drawn) | 11 | 9
CSc1ccc(C(=O)COC(=O)c2cccs2)cc1NC(C)=O | 8 | 4
N#Cc1cccc(OC2CC3CCC(C2)N3C(=O)c2ccc(CSc3nc4cccc(Cl)c4o3)cc2)c1 (stereo not drawn) | 4 | -6
CCNC(=O)C1CCCN(c2nc3ncn(CC(=O)Nc4c(C)cc(C)cc4C)c(=O)c3s2)C1 (stereo not drawn) | 8 | 7
CCN1CC(CNC(=O)c2ccc(OC3CCN(CCc4ccccc4)CC3)cc2)CC1=O (stereo not drawn) | -3 | -5
Cc1ccc(C2(O)CCN(C(=O)c3scc4c3OCCO4)CC2)nc1 | 9 | 4
COC(=O)c1ccc(C)c(NCc2cccc(S(=O)(=O)N(C)C)c2)c1 | 4 | 3
C=C(C)Cn1c(=O)c2c(nc3n(-c4ccc(Cl)cc4)c(C)cn23)n(C)c1=O | 3 | 0
CCOc1ccccc1-c1nc(Cn2nnc(C(=O)Nc3ccc(OC)cc3OC)c2C)c(C)o1 | -15 | -18
O=C(c1cc2sccc2s1)N1CCNCC1 | 4 | -3
Cc1ccc(NC(=O)CSc2nc(=O)n(Cc3ccncc3)c3c2CCC3)cc1Cl | 0 | 0
CCC(NC(=O)CCc1nnc(C2(c3ccc(Cl)cc3)CCC2)o1)c1ccncc1 (stereo not drawn) | 16 | 1
Cc1cc(C)cc(Nc2ncc3c(n2)CCN(C(=O)NC2CCCCC2)C3)c1 | -3 | -5
COC(=O)C1CSCCC1=O (stereo not drawn) | 2 | 0
CCc1c(C)nc2c(-c3ccccc3)c(C)[nH]n2c1=O | -2&-2 | 1&-3
COc1ccc(S(=O)(=O)NCCNc2cnccn2)cc1 | 14 | 7
CCN(CC(=O)Nc1cc(C(C)(C)C)nn1-c1ccc(Cl)c(Cl)c1)C(=O)Nc1ccc(OC)cc1OC | 15 | 20
COc1cn(CC(=O)Nc2ccc(C(N)=O)cc2)c(CSc2ccccc2)cc1=O | 1 | -5
CN(C1=NS(=O)(=O)c2cc([N+](=O)[O-])ccc21)c1ccccc1 | -20 | -25
Cc1ccc2nc(CN(C)Cc3cn[nH]c3C(=O)O)[nH]c2c1 | 17 | 5
COc1cc(C(=O)N(C)C)ccc1NC(=O)c1ccsc1 | 5 | 2
Cc1nc(SCc2cccc(C(=O)NCCN3CCOCC3)c2)nc(N2CCN(c3ccccc3Cl)CC2)c1C | -5 | -3
CC(C(=O)Nc1ccc2nc(C(C)(C)C)sc2c1)S(C)(=O)=O (stereo not drawn) | -4 | -6
O=C(CSc1nnc(C2CC2)n1C1CC1)N1N=C(c2cccs2)CC1c1ccco1 (stereo not drawn) | -6 | 1
Cc1cc(N2CCN(C(=O)c3cc(C(F)(F)F)cc(C(F)(F)F)c3)CC2)nc(-c2cccc(C(F)(F)F)c2)n1 | -4 | 7
COC(=O)c1c(N)sc2c1C(C(=O)OC)CC2 (stereo not drawn) | 4 | 4
C=CCNC(=O)CSc1nnnn1-c1ccc(OC)cc1 | 4 | 4

An excerpt of these results, in CSV form:
SMILES,NPYLR7 ag,NPYLR7 ag max-min
CC(C(=O)Nc1ccc2nc(C(C)(C)C)sc2c1)S(C)(=O)=O (stereo not drawn),-4,-6
COC(=O)c1c(N)sc2c1C(C(=O)OC)CC2 (stereo not drawn),4,4

Going on with the list:
SMILES | NPYLR7 ag | NPYLR7 ag max-min
COc1ccccc1NC(=O)N(Cc1ccc(F)cc1)Cc1ccc(OS(=O)(=O)C(C)C)cc1 | 4 | 6
C=c1c(C#N)c2[nH]c(N)c(C#N)c(C)c-2/c1=C\c1cccs1 | 7 | 5
COc1ccc(-c2cnc(-c3ccc(CNC(=O)/C=C/c4ccccc4Cl)cc3)[nH]2)cc1 | -4 | -8
O=C(Cc1cc(-c2cc3ccccc3o2)on1)NCCc1ccccc1 | 7 | 10
COc1cccc(Cc2nsc(N(CCC(=O)NCc3ccncc3)Cc3ccco3)n2)c1 | 16 | 20
Cc1ccc(-c2nc(OCC(C)C)nn2-c2ccc(NC(=O)c3ccc([N+](=O)[O-])cc3)cc2)cc1 | 21 | 16
CN(CCOc1ccc(Cl)cc1)c1ccc(S(C)(=O)=O)cc1S(N)(=O)=O | -13 | -16
O=C(CCC1CCN(C(=O)c2ccco2)CC1)Nc1ccc2c(c1)OCCO2 | 4 | 1
CN(C(=O)Cn1ncoc1=O)c1ccccc1 | 0 | -4
CC(=O)NC(C)(C)c1noc(C2(c3cccs3)CCCCC2)n1 | 3&-23 | 2&-22
COc1ccc(S(=O)(=O)NC(=O)C2(C)CCN2C(=O)C(C)(C)c2ccccc2)cc1 (stereo not drawn) | 1 | -1
COc1ccc(-c2ccc3ncc4c(c3c2)n(-c2ccc(N3CCNCC3)c(C(F)(F)F)c2)c(=O)n4C)cn1 | 3 | -2
CC(C)N(Cc1nc(C(=O)NCc2cccnc2)co1)Cc1ccccc1Cl | -2 | -17
c1ccc2c(c1)CCCN2C1CCNCC1 | 4 | 3
Cc1cccc(C(=O)NC(C(=O)N2CCOCC2)C2CCN(C(=O)c3ccccc3F)CC2)c1 (stereo not drawn) | 6 | 8
C=CCN=Cc1c(C(F)(F)F)[nH]n(-c2nc3ccccc3s2)c1=O | -11 | -18
CC(C)CC(C)NC(=O)C(=O)c1ccc(C2CCCCC2)cc1 (stereo not drawn) | -6 | -12
Cc1c(CN2CCCC(CNC(=O)c3cccc4ccccc34)C2)[nH]c2ccccc12 (stereo not drawn) | -1 | -6
CC(=O)CC1OC(=O)C(Br)=C1Br (stereo not drawn) | 0 | -5
CCCc1nc(C(=O)N2CCCC(c3n[nH]c(=O)n3CC)C2)cs1 (stereo not drawn) | 24 | 10

Exported comma-delimited: 14 of the compounds above.
Compound,NPYLR7 ag,NPYLR7 ag max-min
CN(CCOc1ccc(Cl)cc1)c1ccc(S(C)(=O)=O)cc1S(N)(=O)=O,-13,-16
O=C(CCC1CCN(C(=O)c2ccco2)CC1)Nc1ccc2c(c1)OCCO2,4,1
CN(C(=O)Cn1ncoc1=O)c1ccccc1,0,-4
CC(=O)NC(C)(C)c1noc(C2(c3cccs3)CCCCC2)n1,3&-23,2&-22
COc1ccc(S(=O)(=O)NC(=O)C2(C)CCN2C(=O)C(C)(C)c2ccccc2)cc1 (stereo not drawn),1,-1
COc1ccc(-c2ccc3ncc4c(c3c2)n(-c2ccc(N3CCNCC3)c(C(F)(F)F)c2)c(=O)n4C)cn1,3,-2
CC(C)N(Cc1nc(C(=O)NCc2cccnc2)co1)Cc1ccccc1Cl,-2,-17
c1ccc2c(c1)CCCN2C1CCNCC1,4,3
Cc1cccc(C(=O)NC(C(=O)N2CCOCC2)C2CCN(C(=O)c3ccccc3F)CC2)c1 (stereo not drawn),6,8
C=CCN=Cc1c(C(F)(F)F)[nH]n(-c2nc3ccccc3s2)c1=O,-11,-18
CC(C)CC(C)NC(=O)C(=O)c1ccc(C2CCCCC2)cc1 (stereo not drawn),-6,-12
Cc1c(CN2CCCC(CNC(=O)c3cccc4ccccc34)C2)[nH]c2ccccc12 (stereo not drawn),-1,-6
CC(=O)CC1OC(=O)C(Br)=C1Br (stereo not drawn),0,-5
CCCc1nc(C(=O)N2CCCC(c3n[nH]c(=O)n3CC)C2)cs1 (stereo not drawn),24,10

Continued.
SMILES | NPYLR7 ag | NPYLR7 ag max-min
Cc1c2ccccc2[nH]c2c1oc1cc(=O)ccc12 | 13 | 22
CC(=O)Nc1ccc(NC(=O)c2csc([C@H]3C[C@H](O)[C@@H](CO)O3)n2)cc1 | -1 | -2
O=C(Nc1cccc(C(=O)N2CCCCC2c2nc3ccccc3o2)c1)NC1CC1 (stereo not drawn) | -7 | -12
CCOC(=NCCCOC)NC(=O)c1cccc(C)c1 | -4 | -2
Nc1cc(-c2cccc(Cl)c2)nn1-c1ccc(C(=O)NCCc2ccc(F)cc2)cc1 | 0 | -6
CCc1nnsc1C(=O)N1CCCC2(C1)C(=O)N(C)c1ccccc12 (stereo not drawn) | 3 | 2
CCn1c(CC2CCN(Cc3nc4ccccc4nc3C)CC2)n[nH]c1=O | -9 | -13
COc1ccccc1-n1c(Cc2ccccc2)nnc1SCc1ccc(C(=O)NCc2ccco2)cc1 | -2 | 6
CCNC(=O)c1[nH]nc(-c2cc(Cl)c(O)cc2O)c1-c1ccc(OC)cc1 | -1 | -6
CN1CC[C@@H](NC(=O)c2cnn3c2CCCC3)[C@@H](Cc2ccccc2)C1 | -4 | -4
CC(=O)c1ccc(NC(=S)NC(NC(=O)CC(C)C)C(Cl)(Cl)Cl)cc1 (stereo not drawn) | -7 | -13
Cc1ccc(Cc2nc(N3CCN(C(=O)CCc4ccccc4)CC3)c3c(-c4ccc5ccccc5c4)noc3n2)cc1 | 21 | 29
Cc1cc(OC(C)C(=O)N2CCN(Cc3ccccc3)CC2)nc(C(C)C)n1 (stereo not drawn) | 5 | 1
COC(=O)C[C@H]1[C@]2(C)C3=C(C)[C@H](c4ccoc4)C[C@H]3O[C@@H]2[C@@H]2OC[C@@]3(C)C2[C@]1(C)[C@@H](OC(=O)CC(C)C)C[C@H]3OC(C)=O (stereo partly drawn) | -8 | -9
CCN1CCN(C(=O)c2ccc(N3CCC(NCc4cccc(OC(F)(F)F)c4)CC3)cc2)CC1 | 16 | 10
Nn1c(O)c(C2=c3ccccc3=NC2=O)sc1=S | -3 | -7
CC1Cc2cc(-c3cc(CC(=O)NCc4cccnc4)no3)ccc2O1 (stereo not drawn) | 7 | 9
CC1=C(C(=O)N(C)Cc2n[nH]c3c2CCCCC3)C(C)NC(=O)N1 (stereo not drawn) | 9 | 6
Cc1ccc(C(=O)N2CCN(Cc3cc(=O)c(OCc4ccc(-c5ccccc5C#N)cc4)co3)CC2)c(F)c1F | 24 | 14
O=C(c1ccc2c(c1)CCO2)N1CCN(Cc2ccc(-c3noc(-c4cccs4)n3)cc2)CC1 | 6 | 11
O=C(c1cn(CC2COc3ccccc3O2)nn1)N1CCC2(C=Cc3ccccc32)CC1 (stereo not drawn) | 2 | -6
COc1cccc(C(=O)N2CCN(c3cc(Cl)nc(SCC(=O)NC(C)c4ccccc4)n3)CC2C)c1 (stereo not drawn) | -14 | -16
O=C(NCc1ccoc1)N1CCN(Cc2ccc(Cl)s2)CC1 | -5 | -5
CCCC1NC(=O)N(CC(=O)Nc2ccccc2)C1=O (stereo not drawn) | 9 | 7
O=S(=O)(NCc1ccc2c(c1)OCO2)c1ccc2c(c1)CCCC2 | 7 | 6
Cc1cccnc1NC(=O)CCNS(=O)(=O)c1ccc(C(C)(C)C)cc1 | 8 | 2
C=C(C)Cn1c(SCCCC)nc2c1c(=O)[nH]c(=O)n2C | -5 | -6
COc1ccc(CCN2CC3=C(C2=O)C(c2cccs2)NC(=O)N3)cc1 (stereo not drawn) | -2 | -3
O=C(CN1CCCc2ccccc21)NNS(=O)(=O)c1ccc(C(F)(F)F)cc1 | -3 | -4
COCCCNC(=O)c1cc(-c2ccc(OC)cc2)nc2c1c(C)nn2C1CCS(=O)(=O)C1 (stereo not drawn) | 3 | 8
CCOC(=O)CSc1nc2sc(C)cc2c(=O)n1Cc1ccco1 | 2 | 3
Cc1nn(-c2ccc(C(C)(C)C)cc2)c(C)c1CCC(=O)NCCc1ccncc1 | 5 | 7
COc1ccccc1CNC(=O)C[C@@H]1CCNC[C@@H]1Cc1cc(CN(C)c2ccccc2)on1 | -6 | -12
c1ccc(CN(Cc2ccccc2)c2ncnc3nc[nH]c23)cc1 | 3 | 9
CCn1nnc2c(Nc3cc(C)cc(C)c3)ncnc21 | 6 | 11
CCc1n[nH]c2c1/C(=N/O)CC(C)(C)C2 | -1 | 30
COc1cccc(-c2nc(OC)nn2-c2cccc(NC(=O)Nc3cccc(Cl)c3)c2)c1 | 2 | 13
CC(C1CC1)N(C)C(=O)NC1CCN(C(=O)c2ccccc2)C1 (stereo not drawn) | 4 | 0
Cc1cc(C(=O)O)cc(C)c1OCC(=O)N1CCCCC1 | 4 | 1
CCN(CC)C(=O)Oc1ccc2c(ccn2Cc2ccccc2-c2ccccc2)c1-c1ccc(F)cc1 | 14 | -8
COCC(C)(C)CNC(=O)[C@]12CC[C@](C)([C@@H](O)C1)C2(C)C | -6 | -14
CC(SCc1nc(N)nc(N)n1)C(=O)N1CCc2ccccc2C1 (stereo not drawn) | 3 | 0
CCOc1ccc(CN(Cc2cc(C)nn2C)C2CC2)cc1 | -4 | -9
O=C(CC(=O)NC1CCC(O)CC1)Nc1ccc(F)c(Cl)c1 (stereo not drawn) | 2 | -37
COC(=O)C1CCCCN1Cc1ccc(C(=O)Nc2cnn(C)c2)cc1 (stereo not drawn) | 4 | -6
COc1ccc(-c2nc(CC(=O)NC(C)c3cccs3)cs2)cc1 (stereo not drawn) | 3 | -1
